# 2A firefly: FMDV 2A StopGo reporter, firefly signal | HEK cells with a luciferase reporter of 2A StopGo recoding | Potency, µM (doses to about 57.5 µM), inactives show at the top dose signal change, negative = less light | actives 0.23% (n = 120,000) | AID 1745856; active = well fitted falling curve with a large enough effect; inconclusive = small, poorly fitted or top-dose-only effect; inactive = no such curve, though single readings can be large or run the other way; further: nearly all actives have a fitted effect of over 60% in size; overnight with compound
# 2A Renilla: lowers the Renilla signal of an FMDV 2A StopGo reporter. HEK cells with a luciferase reporter of 2A StopGo recoding. Potency, µM (series often up to 57.5 µM), for inactives: at the highest dose signal change, negative = less light. actives 0.32% (n = 120,000); active means well fitted falling curve with a large enough effect; inconclusive means small, poorly fitted or top-dose-only effect; inactive means no such curve, though single readings can be large or run the other way; further: nearly all actives have a fitted effect of over 55% in size; overnight with compound
# Active calls of the source: *; u = inconclusive; & = joins results of further samples; [ ] = another dose, or the depositor's remark. On the % scale 0 is the no-effect control and ±100 the full control effect; potency means the concentration at half of the fitted maximal effect.
SMILES,2A firefly,2A Renilla
CCOC(=O)c1cnc2ccc(C(=O)OC)cc2c1Nc1ccccc1CC,9.1%,6.8%
COc1cn(CC(=O)Nc2ccc(C)cc2C)c(CN2CCCCC2)cc1=O,-18.4%,-6.7%
O=C(CCCc1nc(-c2ccccc2)no1)Nc1cc(C(F)(F)F)cc(C(F)(F)F)c1,-3.5%,-15.6%
CCCCCCNC(=O)CCc1c(C)nc2nc(-c3cc(OC)cc(OC)c3)nn2c1C,-28.2%,-10.9%
O=C(Nc1ccc(F)c(F)c1)c1cc(S(=O)(=O)C2CCS(=O)(=O)C2)ccc1F (stereo not given),-5.5%,-21.2%
COc1cc(NC(=O)CC(c2ccc(C)cc2)N2Cc3ccccc3C2=O)cc(OC)c1 (stereo not given),0.0%,127.5%[activator]
CCn1cc(C#N)c(=O)n(Cc2noc(-c3ccc(Cl)cc3)n2)c1=O,-3.1%,-0.9%
CCCN(Cc1cc(=O)[nH]c2ccccc12)C(=O)CC,0.8%,-13.8%
CC/C(C)=N/NC(=O)c1ccc(C(C)(C)C)cc1,176.3%[activator],20.0%
CCc1ccc(NC(=O)Cn2c(C(=O)OC)cc3oc(C)cc32)cc1,0.0%,9.3%
Cc1cc(C)c(NC(=O)CSc2nnc(C)n2C)c(Cl)c1,-2.8%,-4.5%
COc1ccc(N2CCN(Cc3nc4c(c(=O)[nH]c(=O)n4C)n3Cc3ccc(C)cc3)CC2)cc1,16.9%,16.1%
C=CCOc1cccc(/C=C(\C#N)c2nc3ccccc3[nH]2)c1,95.0%[activator],u
CCC(C)NC(=O)NCc1ccccc1 (stereo not given),15.5%,0.5%
CCCCNc1nc2c(c(=O)n(C)c(=O)n2C)n1Cc1ccccc1Cl,-4.8%,-8.1%
CCOC(=O)c1cc(S(=O)(=O)N2CCN(c3ccccc3F)CC2)[nH]n1,-15.5%,80.5%[activator]
COC(=O)C1=C(c2ccccc2)c2ccccc2S(=O)(=O)N1CC(=O)Nc1ccccc1,27.0%,96.1%[activator]
CCOc1ccc(N/C=C/C(=O)c2cc(C)ccc2C)cc1,82.2%[activator],10.9%
Cc1ccc(NC(=O)C(c2ccccc2)N2CCN(C(=O)C3CC3)CC2)cc1Cl (stereo not given),51.0%[activator],0.0%
CCCn1nc(C(=O)OCC(=O)NCc2ccco2)c2ccccc2c1=O,10.0%,-8.3%

# Compound profiles (already shown). Order of values: 2A firefly	2A Renilla
# CCc1ccc(NC(=O)Cn2c(C(=O)OC)cc3oc(C)cc32)cc1 reads 0.0%	9.3%
# CCCCCCNC(=O)CCc1c(C)nc2nc(-c3cc(OC)cc(OC)c3)nn2c1C reads -28.2%	-10.9%
# CCn1cc(C#N)c(=O)n(Cc2noc(-c3ccc(Cl)cc3)n2)c1=O reads -3.1%	-0.9%
# O=C(CCCc1nc(-c2ccccc2)no1)Nc1cc(C(F)(F)F)cc(C(F)(F)F)c1 reads -3.5%	-15.6%
# O=C(Nc1ccc(F)c(F)c1)c1cc(S(=O)(=O)C2CCS(=O)(=O)C2)ccc1F (stereo not given) reads -5.5%	-21.2%

# Continued.
SMILES,2A firefly,2A Renilla
Fc1ccc(F)c(-c2cn3nc(C45CC6CC(CC(C6)C4)C5)sc3n2)c1,u,10.3%[1.06 µM]
CCOc1ccccc1C(=O)NC1(C(F)(F)F)C(=O)Nc2c1c(=O)[nH]c(=O)n2Cc1ccccc1 (stereo not given),4.9%,6.9%
CCOc1ccc(S(=O)(=O)N2CCC(n3c(C)nc4cccnc43)CC2)cc1,u,u
CCN(CC(=O)N1c2ccccc2SCC1c1ccccc1)Cc1nc2ccccc2c(=O)[nH]1 (stereo not given),-19.0%,6.7%
COC(=O)CNCc1cccc(F)c1,2.4%,1.5%
COc1cc2nc(NCc3ccccc3Cl)n3nc(-c4cccnc4)nc3c2cc1OC,24.9%,11.5%
CCOc1ccc(CCNC(=O)c2ccc3[nH]c(C)c(C)c3c2)cc1,4.3%,-8.1%
Cc1ccccc1NC(=O)CCS(=O)(=O)c1ccc2c(c1)NC(=O)CS2,-2.5%,3.5%
Cc1ccc(C)c(NC(=O)NC(=O)C(F)(F)F)c1,5.8%,-2.2%
CCCC[N+](C)(CC#Cc1ccc(C#CC[N+](C)(CCCC)CCCC)cc1)CCCC,-0.8%,10.9%
O=C(Nc1nnc(S(=O)(=O)N2CCCC2)s1)c1ccc(F)cc1,-12.1%,-19.3%
S=C(NC1CCCCC1)NC12CC3CC(CC(C3)C1)C2,6.0%,165.4%[activator]
O=C(c1cnc(N2CCCCC2)c2ccccc12)N1CCN(c2ccccc2F)CC1,2.3%&-28.6%,111.3%&41.5%[activator]
N#Cc1ccccc1-c1ccc(COc2ccccc2C(N)=O)cc1,u,u
O=C(COc1ccccc1Cl)c1ccc2ccccc2c1,73.3%[activator],1.4%[1.06 µM]
Cc1nc(-c2ccccc2)sc1C(=O)N[C@H](C(=O)O)C(C)C,13.2%,-4.5%
CCC(NC(=O)c1ccc(COC)cc1)c1ccccc1OC(F)F (stereo not given),0.5%,-4.4%
N#CC(C#N)=C1C=C(c2ccccc2)OC2=C1CCCC2,5.5%,4.7%
CC1(C)CC(NC(=O)c2cc3ccccc3oc2=O)CC(C)(C)N1,-14.8%,-5.2%
Cc1cccn2c(=O)c(C(=O)N3CCN(c4ccccc4F)CC3)cnc12,46.8%[activator],17.5%
Cc1ccccc1-n1nc(CO)c(C(=O)NCCc2ccccc2)n1,-15.3%,-14.8%
CCOC(=O)N1CCc2c(sc3c2c(=O)n(-c2ccc(Cl)cc2)c(=O)n3CC(C)C)C1,-16.4%,-17.7%
Cn1c(=O)c2c(nc(NCc3ccco3)n2Cc2c(Cl)cccc2Cl)n(C)c1=O,11.4%,8.2%
O=S(=O)(c1ccc(OC(F)(F)F)cc1)N1CCC(c2nc3ccccc3s2)CC1,-15.5%,-14.0%
COc1cccc(C2CC(=O)Nc3c2c(C)nn3-c2nncc(-c3ccc(C)cc3)n2)c1OC (stereo not given),12.0%,-0.4%
Cn1c(=O)c2c(nc(Cl)n2CC(=O)NCc2ccccc2)n(C)c1=O,-6.8%,-5.9%
CCn1cnc2c1c(=O)n(CC(=O)N1CCN(c3ccncc3)CC1)c(=O)n2Cc1ccccc1,-8.3%,-11.4%
Cc1cccc(-c2nnn3c2nc(NCc2ccc4c(c2)OCO4)c2ccccc23)c1,93.9%[activator],-8.0%
COc1ccc(CCC(=O)Nc2ccc3c(c2)NC(=O)C(C)O3)cc1OC (stereo not given),0.9%,0.0%
CCCCn1c(=O)[nH]c(=O)c2c1nc(COC(=O)c1ccccc1)n2CCC(C)C,2.2%,-3.4%
Cc1ccc(CNC(=O)c2nc(S(=O)(=O)Cc3ccccc3C)ncc2Cl)cc1,u,u
CCOc1ncccc1CNC(=O)C1CCN(S(=O)(=O)c2cccnc2)CC1,-17.4%,-15.3%
Fc1ccccc1N1CCN(c2ncnc3onc(-c4ccc(Cl)cc4)c23)CC1,0.7%,-8.3%
Cc1ccc2oc(=O)c3cc(C(=O)Nc4ccc(F)cc4F)sc3c2c1,-7.6%,-5.2%
O=C(O)CNC(=O)CNS(=O)(=O)Cc1ccccc1,-6.3%,-10.4%
Cc1nc2cc(NC(=O)COc3ccc(Br)cc3)ccc2o1,0.0%,22.1%
COc1cc(/C=C(/C#N)c2ccccn2)cc(OC)c1OC(F)F,-0.6%,25.1%
CCCn1cc(S(=O)(=O)c2cc(C)ccc2C)c(=O)c2cc(F)c(N3CCOCC3)cc21,1.1%,166.1%[activator]
COc1ccc(C(=O)NC2=C(C)Nc3ncnn3C2c2c[nH]c3ccccc23)c(OC)c1 (stereo not given),39.0%[activator],76.3%[activator]
Cc1nc(CN2C(=O)COc3ccc(S(=O)(=O)NCc4ccccc4)cc32)no1,5.3%,-14.0%

# For convenience, part of the list above:
SMILES,2A firefly,2A Renilla
CCCCn1c(=O)[nH]c(=O)c2c1nc(COC(=O)c1ccccc1)n2CCC(C)C,2.2%,-3.4%
Cc1ccc(CNC(=O)c2nc(S(=O)(=O)Cc3ccccc3C)ncc2Cl)cc1,u,u
CCOc1ncccc1CNC(=O)C1CCN(S(=O)(=O)c2cccnc2)CC1,-17.4%,-15.3%
Fc1ccccc1N1CCN(c2ncnc3onc(-c4ccc(Cl)cc4)c23)CC1,0.7%,-8.3%
Cc1ccc2oc(=O)c3cc(C(=O)Nc4ccc(F)cc4F)sc3c2c1,-7.6%,-5.2%

# (cont.)
SMILES,2A firefly,2A Renilla
CCOC(=O)CSC(=S)N(C)C,1.2%,0.9%
COc1cccc(C2C(C(=O)Nc3ccccc3)=C(C)Nc3nc(-c4ccccc4)nn32)c1OC (stereo not given),-5.0%,9.7%
O=C(c1ccco1)N1CCN(C(=O)c2cc(=O)c3cc(Cl)ccc3o2)CC1,6.6%,-4.5%
O=C(NCc1ccccn1)c1cc(C(F)(F)F)cc(C(F)(F)F)c1,0.3%,-4.3%
O=C(NCC(c1ccc2c(c1)OCO2)N1CCN(c2ccccc2)CC1)C(=O)Nc1ccccc1 (stereo not given),-2.6%,-10.1%
CCC(C)NC(=S)N(C)N (stereo not given),13.5%,7.4%
Cc1ccc2cccc(NC(=O)c3ccc(C)c(C)c3)c2n1,44.5%[activator],29.1%
CCOc1ccc(CCNC(=O)c2cccc(-n3c(C)nc4cccnc43)c2C)cc1,u,u
Cc1c(C(=O)Nc2cccc(-c3nc4ccccc4s3)c2)oc2ccc(F)cc12,22.9%,-12.2%
CNc1c(NS(=O)(=O)c2c(C)noc2C)c(=O)oc2ccccc12,0.0%,-8.8%
Cc1cc(C)n(-c2nc3cc(Cl)ccc3nc2Nc2ccc(C)c(F)c2)n1,-8.5%,-7.5%
Cc1nc2c(c(SCC(=O)Nc3ccccc3C(F)(F)F)n1)CCC2,-26.0%,-25.9%
O=C(O)c1ccc(SC(F)(F)F)cc1,16.4%,16.2%
O=[N+]([O-])c1cccc(N=Cc2ccc(C#Cc3ccccc3)cc2)c1,203.4%[activator],26.9%
CC1=C(C(=O)OC2CCCCCC2)C(c2ccccc2Cl)CC(=O)N1 (stereo not given),-13.4%,-6.4%
CSc1nc2c(c(=O)n(C)c(=O)n2C)n1Cc1cccc2ccccc12,15.8µM*,14.1µM*
O=C(c1ccc2c(c1)OCCO2)N(Cc1cccnc1)c1nc2c(F)cccc2s1,-19.3%,0.3%
CC(=O)NNC(=S)Nc1ccc(Br)cc1,0.0%,-0.3%
Cc1ccc(NC(=O)Cn2c(SCc3ccc(F)cc3)nc3cccnc32)cc1F,40.1%[activator],-6.3%
O=C(Nc1ccc(Cl)c(C(F)(F)F)c1)c1ccccc1Cl,171.6%[activator],4.6%
Cc1cc(NC(=O)c2cc(-c3ccncc3)nc3c(C)cccc23)no1,2.0%,13.1%
CCNC(=O)C(C)Sc1nnc(-c2cccs2)n1C1CC1 (stereo not given),-5.8%,-1.0%
Cc1ccc(-c2ccc(=O)n(CC(=O)NCc3ccc(F)cc3)n2)cc1,-9.1%,-10.9%
COC(=O)c1ccccc1NC(=O)CSc1cc(-c2ccccc2)nc(C)n1,-10.4%,-11.7%
O=C(CSc1nc2ccncc2[nH]1)Nc1ccccc1C(F)(F)F,-8.3%,u
O=C(Nc1cccc(S(=O)(=O)N2CCCC2)c1)C1CC(=O)N(C2CCCC2)C1 (stereo not given),18.2%,102.7%[activator]
CC1CCN(S(=O)(=O)c2cc(C(=O)N3CCN(c4ccccc4F)CC3)n(C)c2)CC1,-3.4%,14.9%
CO/N=C/c1ccc(C(=O)Oc2ccc(Cl)cc2C)cc1,2.0%,-8.4%
COC(=O)c1ccc(NC(=O)CCCC(=O)OCC(=O)c2ccc(Cl)cc2)cc1,-7.8%,-6.8%
CCCn1c(C)cc(C(=O)CSc2nnc(COc3ccccc3Cl)n2C)c1C,7.1%,24.9%
CCCOC(=O)C1=C(C)N[C@]2(C)C[C@H]1c1ccccc1O2,3.8%,8.4%
Cc1nn(C)c2c1c(C(F)(F)F)cc(=O)n2Cc1ccc(Br)cc1F,-24.2%,-17.3%
CCN(C(=O)COC(=O)c1cc2ccccc2[nH]1)C1CCCCC1,41.3%[activator],4.4%
CCOc1ccc(N2CC(C(=O)Nc3ncn[nH]3)CC2=O)cc1 (stereo not given),-4.7%,-1.5%
Cc1cc(-n2c(SCC(=O)NC(C)(C)C)nc3ccsc3c2=O)ccc1F,-1.7%,7.2%
CC(OC(=O)c1ccc(F)c(S(=O)(=O)N2CCCCC2)c1)C(=O)N1CCc2ccccc21 (stereo not given),-3.1%,-8.7%
CCC(CC)(CNC(=O)CCCO)c1cccc(OC)c1,-14.3%,-6.1%
CCc1ccc(CNC(=O)COc2cc(=O)n(CC)c3ccccc23)cc1,0.0%,38.0%[activator]
Cc1ccc(N2CCN(S(=O)(=O)c3nnc(NC(=O)c4ccc(C(C)C)cc4)s3)CC2)cc1,54.8%[activator],2.9%
CCOc1cc(OCC)c(/C=C2\NC(=O)NC2=O)cc1Br,0.0%,39.4%[activator]
COc1ccc(NC(=O)c2sc3nc4c(cc3c2N)CN(Cc2ccccc2)CC4)cc1,38.3%[activator],17.9%
O=C(Nc1ccc(F)cc1F)c1ccc(CN2CC(=O)N3CCCCC3C2=O)cc1 (stereo not given),2.0%,8.4%
O=C(NCCNC(=O)c1cc2ccccc2[nH]1)C(=O)NC1CC1,-14.6%,5.1%
COc1cccc(C(=O)Nc2ccc(-c3cc(C(F)(F)F)nn3-c3ccccc3)cc2)c1,u,u
CCn1c(Cn2nnc(-c3cccc(F)c3)n2)nc2cc(S(=O)(=O)N3CCCCC3)ccc21,-3.5%,0.1%
CC(C)(C)C(=O)/C=c1/[nH]c(=O)/c(=C/c2cccc3ccccc23)s1,96.1%[activator],8.5%
O=C(COc1cccc(-n2cnnn2)c1)Nc1ccccc1Sc1ccccc1,-6.4%,2.5%
COc1ccc(-n2c(=O)c3ccc(C(=O)NCc4ccc(C)cc4)cc3n(Cc3ccc(Cl)cc3)c2=O)cc1,-12.3%,-8.3%
COc1ccc(C(C)=O)cc1-c1ccccc1,0.2%,4.9%
